Marburg entry inh: Marburg virus entry inhibition. Marburg virus pseudotyped entry inhibition, cell reporter; control for the full effect not named in the record; about a third of the inactives were read at about 46 µM. Potency, µM (titrated, usually from 37.8 µM), inactives show at the highest dose activity change, negative = inhibition, most hits filed as inhibitors. 300,000 tested, 1.8% active. AID 540276; active = well fitted inhibition curve with a large enough effect; inconclusive = small, poorly fitted or top-dose-only effect, or effect the other way; inactive = flat fitted curve, though single readings scatter; tested in HEK293 cells; about a fifth of its hits are not listed in these tables; further: on the % scale 0 is the no-effect control and ±100 the full control effect; luciferase read-out
2A StopGo: FMDV 2A StopGo reporter, luciferase signal. AID 1159524. 410,000 tested, 1.2% active. human cells with a luciferase reporter of 2A StopGo recoding; control for the full effect not named in the record. Potency, µM (titrated, usually from 57.9 µM), without a hit: at the highest dose signal change, negative = less light; active = well fitted falling curve with a large enough effect; inconclusive = small, poorly fitted or top-dose-only effect; inactive = no such curve, though single readings can be large or run the other way; tested in HEK293T cells; further: on the % scale 0 is the no-effect control and ±100 the full control effect; nearly all actives have a fitted effect of over 45% in size; luciferase light after 4 h
NS1 inh: blocks influenza NS1 protein function; Potency, µM (highest dose often 46.1 µM), inactives show at the highest dose activity, positive = more growth; 270,000 tested, 0.4% active; S. cerevisiae slowed by influenza A NS1, growth recovery by OD600; further: actives are rising curves; nearly all actives have a fitted effect of over 50% in size
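Recovery from NS1-induced slow growth read by OD600 in budding yeast switched to galactose assay medium (pH 6.0, -URA) at 1:100 dilution. Compound 23 nl per well; the matching strain lacking NS1 serves as control.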
Lassa entry inh: Lassa virus entry inhibition. Lassa virus pseudotype entry inhibition, cell reporter; control for the full effect not named in the record. Potency, µM (doses to about 37.9 µM), without a hit: at the top dose activity change, negative = inhibition, most hits filed as inhibitors. 300,000 tested, 1.2% active. AID 540256; active means well fitted inhibition curve with a large enough effect; inconclusive means small, poorly fitted or top-dose-only effect, or effect the other way; inactive means flat fitted curve, though single readings scatter; tested in HEK293 cells; further: on the % scale 0 is the no-effect control and ±100 the full control effect; nearly all actives have a fitted effect of over 50% in size; luciferase read-out
Cruzain inh noDet: inhibitors of Trypanosoma cruzi cruzain without detergent | 200,000 tested, 2.3% active | purified cruzain, Z-FR-AMC fluorescence, no detergent | Potency, µM, without a hit: max response, negative = inhibition, hits mostly inhibitors; active means well fitted curve in the direction sought with a large enough effect; inconclusive means small, poorly fitted or top-dose-only effect, or another doubt; inactive means no such curve, though single readings can be large; an effect the other way counts as inactive or inconclusive;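 further: plate controls were enzyme without inhibitor for no effect and buffer without enzyme for full effect; nearly all actives have a fitted effect of over 40% in size; top concentration of the series not given in the record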
Target sequence (P25779 123-467 limits assumed): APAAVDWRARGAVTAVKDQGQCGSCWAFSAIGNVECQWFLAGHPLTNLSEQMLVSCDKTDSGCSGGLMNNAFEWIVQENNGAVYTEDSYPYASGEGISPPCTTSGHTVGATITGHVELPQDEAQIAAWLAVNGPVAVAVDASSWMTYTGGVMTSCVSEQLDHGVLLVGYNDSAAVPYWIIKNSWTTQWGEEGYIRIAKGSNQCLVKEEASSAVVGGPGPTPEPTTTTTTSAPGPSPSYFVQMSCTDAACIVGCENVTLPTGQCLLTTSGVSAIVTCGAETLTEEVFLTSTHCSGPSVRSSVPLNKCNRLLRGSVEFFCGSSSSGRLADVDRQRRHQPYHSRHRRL
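Purified cruzain at 1.5 nM, pre-incubated 15 min with compound at room temperature in 100 mM sodium acetate pH 5.5, 5 mM DTT, 0.00005% Triton X-100. Reaction started with 2 uM Z-FR-AMC; AMC fluorescence increase over 60 s gives rate.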
Cruzain Triton: cruzain (T. cruzi) inhibition with detergent; P25779; purified cruzain, Z-FR-AMC fluorescence, 0.01% Triton; Potency, µM, inactives show max response, negative = inhibition, usual class: inhibitors; 200,000 tested, 0.43% active; active means well fitted curve in the direction sought with a large enough effect; inconclusive means small, poorly fitted or top-dose-only effect, or another doubt; inactive means no such curve, though single readings can be large; an effect the other way counts as inactive or inconclusive;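 further: plate controls were neutral wells for no effect and buffer without enzyme for full effect; nearly all actives have a fitted effect of over 40% in size; top concentration of the series not given in the record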
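Cysteine protease activity tested under reducing, mildly acidic conditions (100 mM sodium acetate pH 5.5, 5 mM DTT) plus 0.01% Triton X-100. Cruzain 1.5 nM; substrate Z-FR-AMC 2 uM; 15 min compound preincubation at room temperature.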
RE007 growth inh: less growth of the S. pombe RE007 Vpr strain. S. pombe RE007 Vpr strain, BacTiter-Glo ATP luminescence, 24 h; control for the full effect not named in the record. Potency, µM (highest dose often 92.2 µM), without a hit: top-dose activity change, negative = less growth. 360,000 tested, 0.21% active. AID 651644; active = well fitted falling curve with a large enough effect; inconclusive = small, poorly fitted or top-dose-only effect; inactive = no such curve, though single readings can be large or run the other way;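 further: on the % scale 0 is the no-effect control and ±100 the full control effect; nearly all actives have a fitted effect of over 50% in size; the assay follows cell death caused by Vpr and the record does not say whether a fall means rescue or toxicity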
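Fission yeast strain RE007, carrying one chromosomally integrated HIV-1 vpr copy, was seeded at OD 0.01 in PMG+AL medium with 23 nL pinned compound. After 24 h at 30 °C and 99% humidity, viability was read by BacTiter-Glo luminescence.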
SARS PLP yeast: SARS-CoV PLP inhibition in yeast; Potency, µM (doses to about 32.9 µM), inactives show at the highest dose activity, positive = growth rescue; 330,000 tested, 0.19% active; S. cerevisiae expressing SARS-CoV PLpro, growth rescue; control for the full effect not named in the record; AID 485353; further: 0% is about no effect; nearly all actives have a fitted effect of over 55% in size; growth read by luminescence after 48 h
* = called active by the depositor; u = inconclusive; x = no result given; & = joins results of further samples; [ ] = remark or other dose. Unless noted, the call rests on the fitted dose curve; in most records, active means well fitted rising curve with a large enough effect; inconclusive means small, poorly fitted or top-dose-only effect; inactive means no such curve, though single readings can be large or run the other way. Potency means the concentration at half of the fitted maximal effect.

#	mol	Marburg entry inh	2A StopGo	NS1 inh	Lassa entry inh	Cruzain inh noDet	Cruzain Triton	RE007 growth inh	SARS PLP yeast
1	O=c1ccc(-c2ccccc2)nn1Cc1ccccc1F	u	-16.7%	-13.5%	-6.6%[46.1 µM]	x	x	5.2%	0.0%
2	CC(=O)N1CCN(C(=O)CSc2nnc(C)n2-c2ccccc2)CC1	x	-0.7%	3.6%	x	x	x	4.9%	1.3%
3	Cc1ccc(NC(=O)Cn2nnc3ccccc32)cc1	12.9%[46.1 µM]	29.9%	0.9%	-1.8%[46.1 µM]	x	x	-2.3%	-0.3%
4	C=CCc1ccccc1OCCn1nnc2ccccc21	x	-15.9%	-27.7%	x	x	x	-18.7%	1.3%
5	COc1ccccc1NC(=O)c1oc2ccccc2c1NC(=O)c1cccc(OC)c1OC	1.1%[46.1 µM]	-6.9%	x	-15.3%[46.1 µM]	-0.7%	-1.9%	x	x
6	C=CCSc1ncccc1C(=O)NCc1ccccc1	-6.2%	21.5%	-23.8%	-18.9%[14.3 µM]	-1.1%	1.2%	12.7%	5.0%
7	COc1ccc(CCNC(=O)C2CCCN(S(=O)(=O)c3ccc4c(c3)oc(=O)n4C)C2)cc1OC (stereo not given)	-0.3%[46.1 µM]	-26.8%	x	-22.3%[46.1 µM]	-3.6%	-0.2%	x	x
8	O=c1cc(N/N=C/c2ccccc2)[nH]c(=O)[nH]1	u	-6.8%	x	u	x	x	1.6%	x
9	CC(C)(O)c1cc(=O)sc2nc3ccccc3n12	-0.2%	13.8%	-9.2%	u	0.3%	1.3%	-5.3%	10.7%
10	OCC1CCN(Cc2nc(Cc3ccccc3Cl)no2)CC1	-0.5%[46.1 µM]	12.7%	-0.8%	-3.3%[46.1 µM]	x	x	1.1%	-0.5%
11	CN(C)S(=O)(=O)c1ccc(NC(=O)C2CC(=O)N(Cc3ccccc3Cl)C2)cc1 (stereo not given)	-12.8%[46.1 µM]	-21.9%	x	-26.5%	x	x	-2.2%	-4.4%
12	CCCCn1c(N)c(N(CCOC)C(=O)COC(=O)CCOc2ccccc2C)c(=O)[nH]c1=O	29.1%	-12.2%	x	18.4%	x	x	-11.6%	-0.6%
13	CCCCN(CCCC)CCNC(=O)CN1C(=O)COc2ccc(S(=O)(=O)N3CCOCC3)cc21	-25.4%[46.1 µM]	-1.3%	-10.0%	23.4%[46.1 µM]	x	x	-9.6%	-6.3%
14	CCn1nc(CC(=O)Nc2nnc(CC(=O)N3CCCCC3)s2)c2ccccc2c1=O	1.9%	-14.0%	5.3%	-0.3%	2.2%	-3.1%	0.4%	-6.3%
15	Cc1onc(-c2c(F)cccc2Cl)c1C(=O)Nc1cccc(S(=O)(=O)N2CCOCC2)c1	u	-15.0%	x	u	x	x	1.9%	2.5%

The last 3 entries of the part before open the next one:
#	mol	Marburg entry inh	2A StopGo	NS1 inh	Lassa entry inh	Cruzain inh noDet	Cruzain Triton	RE007 growth inh	SARS PLP yeast
13	CCCCN(CCCC)CCNC(=O)CN1C(=O)COc2ccc(S(=O)(=O)N3CCOCC3)cc21	-25.4%[46.1 µM]	-1.3%	-10.0%	23.4%[46.1 µM]	x	x	-9.6%	-6.3%
14	CCn1nc(CC(=O)Nc2nnc(CC(=O)N3CCCCC3)s2)c2ccccc2c1=O	1.9%	-14.0%	5.3%	-0.3%	2.2%	-3.1%	0.4%	-6.3%
15	Cc1onc(-c2c(F)cccc2Cl)c1C(=O)Nc1cccc(S(=O)(=O)N2CCOCC2)c1	u	-15.0%	x	u	x	x	1.9%	2.5%
16	O=C(Nc1cccc2ccccc12)N1CCN(Cc2ccccc2)CC1	7.8%	-17.5%	-10.7%	-3.7%	6.0%	3.0%	10.5%	-2.5%
17	O=C(c1cc2cc(F)ccc2[nH]1)N1CCN(Cc2ccc3c(c2)OCO3)CC1	x	-20.6%	-15.0%	x	x	x	-4.0%	5.0%
18	COc1cc(OC)cc(-c2nc(-c3cccs3)no2)c1	28.6%[46.1 µM]	52.2%[activator]	x	u	x	x	-2.3%	7.0%
19	COCC1CCN(C(=O)c2ccc(OC)c(OC3CCN(C(C)C)CC3)c2)CC1	2.0%	14.1%	-2.1%	-0.5%	x	x	-18.3%	3.0%
20	Cc1nc(C)c(C(=O)NNS(=O)(=O)c2ccccc2)s1	u	-7.6%	12.3%	-22.3%	-11.6%	0.5%	11.4%	13.0%
21	CC(C)NS(=O)(=O)c1ccc(CCC(=O)N2CCc3ccccc3C2)cc1	u	-18.0%	x	-27.0%[46.1 µM]	x	x	-24.3%	8.9%
22	N/C(=N\OC(=O)c1cnn(-c2ccccc2)c1C(F)(F)F)c1cc(C(F)(F)F)cc(C(F)(F)F)c1	-15.2%	-11.5%	2.6%	-1.0%	x	x	-16.1%	0.6%
23	Cn1cccc1/C=C1/C(=O)NC(=S)N(Cc2ccc(F)cc2)C1=O	5.1%[46.1 µM]	28.2µM*	10.4%	-19.8%	x	x	-0.5%	1.5%
24	CCCNC(=O)C1CCC(CNS(=O)(=O)c2ccc3c(c2)CC(C)N3C(C)=O)CC1 (stereo not given)	x	-9.8%&11.7%	-5.5%	7.1%[46.1 µM]	0.5%	-0.3%	6.0%	3.4%
25	CC(OC(=O)c1ccco1)C(=O)NCc1ccc2c(c1)OCO2 (stereo not given)	u	-1.9%	0.5%	9.0%[46.1 µM]	x	x	5.8%	-2.1%
26	Cc1cc(C)nc(Nc2ccc(C)c([N+](=O)[O-])c2)n1	13.7%[46.1 µM]	14.2%	-0.2%	10.1%	x	x	-26.6%	-1.0%
27	Cc1ccc(CNC(=O)COC(=O)Cc2ccc(-c3ccccc3)cc2)cc1	17.1%	-11.1%	2.0%	4.7%	-4.4%	-6.9%	12.2%	-4.6%
28	O=S(=O)(c1ccccc1)C1(C2CC(c3ccccc3)=NO2)CC(O)C1 (stereo not given)	x	3.4%	2.5%	x	x	x	1.5%	-3.0%
29	Cc1nc([N+](=O)[O-])cn1CC(=O)c1ccc(OC(F)(F)F)cc1	-1.9%[46.1 µM]	3.5%	-0.9%	-16.2%	x	x	4.7%	-0.7%
30	CC(C)CC(=O)NC(c1cccs1)c1ccc2cccnc2c1O (stereo not given)	10µM*	8.0%	-0.2%	u	x	x	u	-0.7%
31	O=C(NC(=S)Nc1ccc(N2CCCC2)cc1)c1ccccc1[N+](=O)[O-]	3.2%	12.5%	u	-31.4%	u	-2.4%	9.9%	13.7%
32	CNC(=O)C1CC(=O)N(Cc2ccc3c(c2)OCO3)C(=Nc2ccc(F)cc2)S1 (stereo not given)	24.5%	x	-2.7%	-10.3%	u	-4.2%	-6.3%	-4.8%
33	CCCCCNC(=O)C1CCC(Cn2c(=O)c3sccc3n(CC(=O)N3CCCC3)c2=O)CC1 (stereo not given)	x	-10.3%	x	11.5%[46.1 µM]	-4.8%	-0.5%	x	x
34	O=[N+]([O-])c1cc(/C=N/OCc2c(Cl)cccc2Cl)ccc1N1CCOCC1	24.4%	-1.3%	-3.7%	u	-23.9%	0.2%	-7.5%	3.3%
35	COC(=O)c1c(NC(=O)CSc2nnc(-c3ccco3)n2Cc2ccccc2)sc(C)c1C	u	u	14.8%	-28.1%	-7.0%	-0.8%	1.4%	13.9%
36	CCN(CC)C(=O)c1ccc(COc2ccc(Cl)c(C)c2)o1	u	1.5%	-48.5%	u	x	x	-20.1%	-4.2%
37	CCc1ccc(N2CC(C(=O)Nc3ccccc3F)CC2=O)cc1 (stereo not given)	7.0%	31.2%[activator]	-6.9%	9.3%	-0.5%	2.2%	6.0%	0.5%
38	CSCC(NS(=O)(=O)c1ccc(C)cc1)C(=O)O (stereo not given)	u	-8.5%	-0.8%	5.6%	x	x	-3.2%	1.7%
39	Brc1ccc(-c2nc3ncccn3c2NC2CCCCC2)o1	-25.0%	u	-4.3%	-23.6%	2.2%	-7.5%	-12.0%	-8.1%
40	Cc1ccc(C(=O)NNc2ncnc3c2cnn3C)cc1	-2.0%[46.1 µM]	16.2%	0.7%	8.1%	x	x	2.6%	1.2%
41	CCN(CC)Cc1cc(NC2=NS(=O)(=O)c3ccccc32)ccc1OC(=O)C(C)C	-11.3%	-5.5%	-2.6%	7.1%	2.7%	-1.4%	-23.0%	-2.8%
42	COc1ccccc1C1OCC(C)(C)CO1	22.6%[46.1 µM]	-5.0%	x	-6.2%[46.1 µM]	x	x	-10.7%	x
43	CC(=O)Nc1c(C(=O)C2CC2)oc2ccccc12	-2.1%	-8.8%	-1.5%	-22.4%	-10.6%	-3.4%	12.5%	-0.5%
44	CCC(SC1=NCCS1)C(=O)Nc1ccc(S(N)(=O)=O)cc1 (stereo not given)	-6.1%	-7.3%	u	-14.2%	u	0.8%	6.4%	7.0%
45	CCNc1nc(Cl)nc(NCCOc2ccc(C)cc2)n1	6.4%	-19.8%	1.5%	2.7%	u	0.2%	u	7.7%
46	COc1ccc2c(c1OC)C(=O)N(c1nccs1)C2	-13.8%	19.3%	-87.1%	u	-5.5%	-0.1%	-29.9%	11.0%
47	CNc1nc(Sc2ccccc2)cc(C(F)(F)F)n1	5.0%	7.9%	-30.3%	-7.8%	-1.0%	-9.8%	7.6%	-6.4%
48	COc1ccc(/C=N/N=C2/CC(C)(C)Cc3n[nH]c(=O)cc32)cc1	-0.9%[46.1 µM]	-9.7%	x	-1.8%[46.1 µM]	x	x	-2.6%	1.7%
49	CCCN(CCC)c1cc(Cl)nc(N)n1	1.3%[46.1 µM]	-17.4%	x	-1.2%[46.1 µM]	x	x	8.9%	-3.4%
50	CCOC(=O)C1(CCc2ccccc2)CCN(Cc2ccc(NC(C)=O)cc2)CC1	x	-23.5%	12.1%	x	x	x	4.6%	0.4%
51	CC(=O)Nc1cccc(/C(C)=N/NS(=O)(=O)c2ccc(C)cc2)c1	u	44.6%[activator]	x	5.4%	x	x	13.3%	-0.2%
52	CCOc1ccccc1C(=O)N(Cc1cccs1)C1CCS(=O)(=O)C1 (stereo not given)	u	-7.6%	-19.5%	0.0%	-1.9%	-2.9%	4.5%	6.2%
